From PubChem
Mtb growth = M. tuberculosis H37Rv growth inhibitors, H37Rv strain (AID 1626). M. tuberculosis H37Rv growth inhibition; higher % means a stronger effect. inhibition, % at 10 µM; hits with a dose series show IC50 in µM. actives 0.95% (n = 220,000);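 active means confirmed in a dose series; inconclusive means inhibition above 80% but not taken into the dose series; inactive means below 80% or under 30% at every dose of the series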;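 further: bacteria incubated seven days before Alamar blue readout; 0% = bacteria only wells and 100% = bacteria with antibiotic wells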
Mtb betalactam = beta-lactam sensitization of Mtb H37Rv; M. tuberculosis H37Rv growth with meropenem, percent inhibition; hits of this screen are not shown here; AID 434955; inhibition, % at 25 µM; actives 0.27% (n = 330,000);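 active means about 74% or more and at least 40 points above the plate without the antibiotic, then above 30% in a dose series; inconclusive means first-round hits that could not be retested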;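 further: growth measured after seven days incubation then overnight dye step; 0% = bacteria only wells and 100% = bacteria with antibiotic; twin plates without the antibiotic show which effects depend on it; some results filed as inactive read as strong as hits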
Arbovirus inh = antivirals against arbovirus infection | arbovirus infection cell-based antiviral screen | inhibition, % at 10 µM | actives 0.37% (n = 200,000) | AID 1251;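 active means inhibition from about 30%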;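 further: bluetongue infection of BSR cells; cell survival read as ATP light after 72 h; 0% = infected wells without compound and 100% = uninfected wells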
RecA splice inh = blocks M. tuberculosis RecA intein splicing | cell-free RecA intein splicing, fluorescence | inhibition, %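 (about 9 µM by stock and volumes)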 | actives 0.75% (n = 290,000); in the data active means inhibition above about 30%; inconclusive means no clear call, values can overlap the other calls;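 further: 0% = vehicle wells and 100% = reference inhibitor control wells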
Target sequence (P9WHJ3 whole entry, looked up, canonical isoform): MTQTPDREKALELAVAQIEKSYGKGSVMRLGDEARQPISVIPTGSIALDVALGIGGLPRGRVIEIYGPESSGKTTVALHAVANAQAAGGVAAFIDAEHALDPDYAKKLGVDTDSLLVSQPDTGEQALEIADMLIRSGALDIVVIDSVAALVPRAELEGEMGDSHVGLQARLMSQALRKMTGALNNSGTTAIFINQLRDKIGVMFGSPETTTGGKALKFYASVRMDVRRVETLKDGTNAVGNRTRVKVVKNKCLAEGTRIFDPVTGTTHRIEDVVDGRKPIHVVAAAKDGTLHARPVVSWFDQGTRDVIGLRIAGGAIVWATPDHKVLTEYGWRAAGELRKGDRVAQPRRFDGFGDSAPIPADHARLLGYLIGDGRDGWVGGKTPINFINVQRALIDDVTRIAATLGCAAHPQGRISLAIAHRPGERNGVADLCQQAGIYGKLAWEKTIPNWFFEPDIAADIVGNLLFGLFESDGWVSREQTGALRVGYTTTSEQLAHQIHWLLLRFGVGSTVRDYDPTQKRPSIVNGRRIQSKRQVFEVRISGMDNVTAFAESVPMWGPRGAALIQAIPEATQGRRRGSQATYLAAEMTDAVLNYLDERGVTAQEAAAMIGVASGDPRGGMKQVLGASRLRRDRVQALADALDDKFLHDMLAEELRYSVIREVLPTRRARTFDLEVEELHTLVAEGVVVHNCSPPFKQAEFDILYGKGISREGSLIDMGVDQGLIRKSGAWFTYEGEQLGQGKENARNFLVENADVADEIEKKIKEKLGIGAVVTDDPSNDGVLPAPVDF
YopH PTP inh = blocks Yersinia enterocolitica YopH tyrosine phosphatase; fluorescence Ex485/Em525; inhibition, %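 (about 10 µM by stock and volumes)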; actives 0.16% (n = 140,000); AID 898;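 active means inhibition of 50% or more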;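 further: controls were vehicle for no effect and minimum signal wells for full effect; inactives centre near -20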
* = called active by the depositor; ? = inconclusive; . = no result given.

SMILES | Mtb growth | Mtb betalactam | Arbovirus inh | RecA splice inh | YopH PTP inh
CN(C)S(=O)(=O)c1cccc(NC(=S)Nc2ccc3cn[nH]c3c2)c1 | 0% | 1 | 10 | 2.9 | .
Cc1ccc(S(=O)(=O)NCCN2CCNC2=O)cc1 | -2% | -8 | . | 1.6 | .
Cc1ccc(NC(=O)CN2C(=O)S/C(=C\C(=O)Nc3ccc(Cl)cc3)C2=O)cc1 | 15% | 5 | -8 | -0.1 | -12
CCOc1ccccc1NC(=O)CSc1nnc(CNC(=O)c2cccs2)o1 | . | -3 | . | -7.5 | .
COC(=O)c1sc(C(F)(F)F)c(-c2ccccc2)c1S(=O)(=O)N1CCCC1 | -3% | -10 | . | . | .
CC(=O)c1ccc(NC(=O)CN2CCC(C(=O)c3ccc4c(c3)OCCO4)CC2)cc1 | . | 7 | . | -3.6 | .
Cn1c(SCC(=O)N2CCOCC2)nc2sc3c(c2c1=O)CCCC3 | -1% | -3 | -4 | -3.8 | -42
Cc1cc(C)n2nc(C(=O)NCc3ccco3)cc2n1 | 7% | -11 | 2 | -3.4 | .
O=C(CCC(=O)Nc1ccccc1)N/N=C/c1ccco1 | 1% | 6 | 0 | -0.7 | 4
COc1ccc(-c2cc(C(=O)N/N=C/c3cc(OC)c(OC)cc3OC)c3ccccc3n2)cc1 | . | -7 | . | -20 | .
CN(Cc1ccc(OCC(O)CN(C)Cc2ccccc2)cc1)Cc1nccn1C (stereo not given) | -1% | -7 | . | -0.3 | .
Cc1ccc(C(C(=O)NCC2CCCO2)N(C(=O)c2snc(C(N)=O)c2N)c2ccc(F)cc2)o1 (stereo not given) | . | -4 | . | 2.3 | .

Some of these compounds in order of formula weight, rising:
SMILES | Mtb growth | Mtb betalactam | Arbovirus inh | RecA splice inh | YopH PTP inh
Cc1ccc(S(=O)(=O)NCCN2CCNC2=O)cc1 | -2% | -8 | . | 1.6 | .
O=C(CCC(=O)Nc1ccccc1)N/N=C/c1ccco1 | 1% | 6 | 0 | -0.7 | 4
COC(=O)c1sc(C(F)(F)F)c(-c2ccccc2)c1S(=O)(=O)N1CCCC1 | -3% | -10 | . | . | .

The results go on.
SMILES | Mtb growth | Mtb betalactam | Arbovirus inh | RecA splice inh | YopH PTP inh
CCCCNC(=O)/C(C#N)=C/c1ccc(C(=O)OC)cc1 | -4% | 90 | -6 | 8.0 | .
COc1ccccc1N1CCN(CC(=O)NCc2ccc(Cl)cc2)CC1 | . | -1 | . | -0.8 | .
COc1cccc(NC(=O)CSc2c3c(nc4ccccc24)CCCC3)c1 | 1% | -4 | -31 | 70* | -18
Cc1ccc(NC(=O)COc2coc(CN3CCc4ccccc43)cc2=O)c(C)c1 | . | -4 | . | -0.7 | .
O=C(NCc1ccco1)C12CC3CC(CC(C3)C1)C2 | 7% | 17 | -4 | 0.1 | -1
COC(=O)c1ccc(COc2ccccc2/C=C(\C#N)C(=O)Nc2ccc(C)cc2C)cc1 | -1% | 7 | -5 | -5.3 | -23
CC(=O)c1ccc(Oc2ccc(C(C)=O)cc2)cc1 | -4% | 4 | 9 | -0.4 | -33
O=[N+]([O-])c1cc(NCCO)c(N2CCCCCC2)c2nonc12 | . | -1 | . | 10 | .
CCC(CNC(=O)c1c(C)nn(-c2ccccc2)c1Cl)c1ccccc1 (stereo not given) | . | -2 | . | 10 | .
Cc1ccc(NS(=O)(=O)c2ccc(C)c(C(=O)N3CCN(C)CC3)c2)cc1 | 0% | -21 | -4 | 2.8 | -24
CSCCC(C)N1CCC(Oc2ccc(C(=O)N3CCCC3)cc2)CC1 (stereo not given) | . | ? | . | -3.1 | .
Cc1ccccc1C1C(C#N)=C2NC(=O)c3c(sc4c3CCCCC4)N2C2=C1C(=O)CC(C)(C)C2 (stereo not given) | . | -5 | -7 | 0.3 | -16
Cc1ccsc1C(=O)C1CCCN(Cc2sc(N(C)C)nc2Cl)C1 (stereo not given) | -5% | -4 | 7 | 1.7 | .
O=C(NNC(=O)C1CCN(S(=O)(=O)c2ccc(Cl)cc2)CC1)c1ccc(Cl)cc1 | -6% | -7 | 2 | 3.3 | -43
CCOC(=O)CC(NS(=O)(=O)c1ccc(NC(C)=O)cc1)c1ccc(OCC)cc1 (stereo not given) | -7% | 4 | 3 | 1.2 | -15
CCOC(=O)c1cc2c(OC)ccc(OC)c2n1CC(=O)c1ccccc1 | . | -1 | . | 1.8 | .
O=C(NNC(=O)c1cc2ccccc2oc1=O)c1ccccc1 | . | 3 | . | 2.6 | .
O=C(Nc1ccccc1Cl)O/N=C/c1ccncc1 | -1% | 3 | . | 1.6 | -42
COc1ccc2c(c1)n([O-])c1c([n+]2=O)CCC1 | -8% | 1 | . | 5.4 | .
O=C1OC(c2ccc(Cl)cc2)=C/C1=C/c1cccnc1 | . | 0 | . | 1.3 | .
O=C(c1ccc(Br)cc1)N1CCCC(c2nc(-c3cccs3)no2)C1 (stereo not given) | -4% | 6 | 4 | . | .
C/C(N)=C(/C#N)C(=O)CSc1nc2scc(-c3ccccc3)c2c(=O)n1C | 5% | -2 | 7 | 1.7 | .
CCOC(=O)c1cc(-c2ccc(N3CCOCC3)cc2)nn1-c1ccccc1 | 17% | 93 | -9 | 3.7 | -4
CCN(c1ccc(C)cc1C)S(=O)(=O)c1nnc(NC(=O)c2ccco2)s1 | . | 67 | . | -3.2 | .

Four entries from above, field by field:
SMILES: O=C(c1ccc(Br)cc1)N1CCCC(c2nc(-c3cccs3)no2)C1 (stereo not given)
  Mtb growth: -4% | Mtb betalactam: 6 | Arbovirus inh: 4 | RecA splice inh: . | YopH PTP inh: .
SMILES: C/C(N)=C(/C#N)C(=O)CSc1nc2scc(-c3ccccc3)c2c(=O)n1C
  Mtb growth: 5% | Mtb betalactam: -2 | Arbovirus inh: 7 | RecA splice inh: 1.7 | YopH PTP inh: .
SMILES: CCOC(=O)c1cc(-c2ccc(N3CCOCC3)cc2)nn1-c1ccccc1
  Mtb growth: 17% | Mtb betalactam: 93 | Arbovirus inh: -9 | RecA splice inh: 3.7 | YopH PTP inh: -4
SMILES: CCN(c1ccc(C)cc1C)S(=O)(=O)c1nnc(NC(=O)c2ccco2)s1
  Mtb growth: . | Mtb betalactam: 67 | Arbovirus inh: . | RecA splice inh: -3.2 | YopH PTP inh: .

More records follow.
SMILES | Mtb growth | Mtb betalactam | Arbovirus inh | RecA splice inh | YopH PTP inh
O=C(O)/C(=C/c1cccnc1)NC(=O)c1ccccc1 | -13% | 0 | -2 | -2.1 | -36
CC(C)c1ccc(NC(=O)c2cccc(NC3=NC4CS(=O)(=O)CC4S3)c2)cc1 (stereo not given) | . | -1 | . | 0.2 | .
CC12CCCc3c(O)cc(=O)n(c31)-c1ccccc12 (stereo not given) | -5% | 4 | 23 | -4.1 | -23
Cc1ccc(NC(=O)CCN2CCc3ccccc3C2)cc1 | 9% | 5 | 9 | 18 | -26
CCCS(=O)(=O)N1CCN(C(=O)c2cccc(OC)c2)CC1 | -5% | -2 | -2 | 0.5 | -44
CN1CCN(S(=O)(=O)c2cccc(C(=O)Nc3sc4c(c3C(N)=O)CCCC4)c2)CC1 | -1% | 6 | 13 | -8.7 | -29
C=CCc1c(C)nc(-c2ccccc2)nc1Nc1ccc(O)cc1 | 25% | 12 | -24 | 13 | -39
CCN(CC)CCNC(=O)c1cccc(NC(=O)C(=O)c2cc(Br)ccc2NC(C)=O)c1 | -7% | -1 | 23 | 0.0 | .
O=C1NC(c2ccc(Br)cc2)=N/C1=C/c1ccco1 | 7% | 61 | -11 | -0.1 | 0
CC(C)(C)c1ccc(-n2ncc3c2CCCC3NC(=O)CN2CCCC2=O)cc1 (stereo not given) | . | ? | . | 3.5 | .
CCCn1nnc(NC(=O)COc2ccccc2Cl)n1 | -2% | -4 | 6 | -0.8 | -4
CC(OC(=O)c1ccc(F)cc1)C(=O)Nc1nc(-c2cccc([N+](=O)[O-])c2)cs1 (stereo not given) | 17% | 8 | 13 | 0.7 | -25
O=C(NCc1cccnc1)C(=O)NCC1OCCN1S(=O)(=O)c1cc(F)ccc1F (stereo not given) | 0% | -4 | . | 0.4 | .
COC(=O)Cn1c(-c2ccc(OC)cc2)c(-c2ccc(OC)cc2)nnc1=O | . | 15 | . | 2.7 | .
O=[N+]([O-])c1cccc(NC(=S)N2CCN(c3ccccn3)CC2)c1 | . | 4 | . | -4.1 | .
O=C(N/N=C\c1c[nH]c2ccccc12)c1ccc(O)cc1 | . | 1 | . | -8.5 | .
Cc1cc(C)c2c3c(sc2n1)C(=O)N(c1ccccc1)CC(=O)N3 | -5% | 2 | . | 1.0 | .
CN(C)c1ccnc2sc3c(=O)n(-c4ccccc4)cnc3c12 | 1% | -7 | 13 | -8.6 | -21
O=C1CC(c2ccccc2)CC(=O)C1Sc1ccc(Cl)cc1 (stereo not given) | 0% | -9 | 10 | -2.1 | -7
COc1ccc(CCC(=O)NCCCNC(=O)CCc2ccc(OC)cc2)cc1 | -4% | -7 | 6 | -1.9 | -17
CCn1c(SCc2ccc(C#N)cc2)nnc1-c1cccc(Cl)c1 | -5% | 1 | -6 | 2.3 | -90
COc1ccc(CCNC(=O)N[C@@H](Cc2ccccc2)C(=O)O)cc1 | . | 1 | . | 0.8 | .
Cc1ccc(S(=O)(=O)Oc2ccc(/C=C3\C(=N)N4N=C(S(C)(=O)=O)SC4=NC3=O)cc2)cc1 | . | 0 | . | 20 | .
C=CCn1c(SCc2n[nH]c(=S)n2-c2ccccc2)nnc1-c1ccccc1 | -8% | 1 | . | -3.0 | .
CCc1ccc(C(=O)/C=C2\Sc3ccccc3NC2=O)cc1 | -5% | 2 | -9 | 0.4 | -22
Cn1c(SCCC#N)nnc1-c1ccccc1F | 1% | 4 | 3 | -1.6 | .
O=C(CC1CCCCC1)Nc1c2c(nn1-c1ccc(F)cc1)CS(=O)(=O)C2 | -7% | 2 | 1 | 1.6 | -31
O=C(NCc1ccccc1)C1CCN(C(=O)NCc2ccccc2)CC1 | -1% | -4 | 7 | -0.6 | -33
O=C(COc1ccc([N+](=O)[O-])cc1)NNC(=S)NC(=O)c1ccc(Br)cc1 | 10% | 8 | 9 | -0.3 | .
Cc1cc(C)c(C(=O)c2ccc(C(=O)NC(C)(C)C)cc2)c(C)c1 | 0% | -3 | 4 | -1.9 | -23
COc1ccc(/C=N/NC(=O)c2[nH]c3ccc(Br)cc3c2-c2ccccc2)c(C(=O)O)c1OC | 0% | 67 | . | 7.8 | .
CCOC(=O)N1CCN(C(=O)CCN2C(=O)/C(=C\c3cccc(OC)c3)SC2=S)CC1 | . | 0 | . | -0.5 | .
NC(=S)Nc1nc2ccccc2[nH]c1=O | . | 49 | 1 | 0.9 | -13
COc1cccc(CNC(=O)CCC2CCCN(C(=O)CCn3cncn3)C2)c1 (stereo not given) | 0% | 2 | 2 | 1.9 | .
O=C(NCC1CCCO1)C(c1ccc(F)cc1)N(Cc1ccc2c(c1)OCO2)C(=O)c1ccc(CN2CCOCC2)o1 (stereo not given) | -5% | 0 | 7 | -1.7 | .
CCN(CC)S(=O)(=O)c1cccc(S(=O)(=O)c2cccc(S(=O)(=O)N(CC)CC)c2)c1 | -5% | -8 | . | 2.1 | -25
CCCCC(=O)Nc1ncc([N+](=O)[O-])s1 | 3% | -2 | 19 | 14 | .
COc1cc(OC)cc(C(=O)N[C@H](C(=O)NCc2ccccc2)C(C)C)c1 | . | -8 | . | 1.2 | .
O=c1ccn(-c2cccc(C(F)(F)F)c2)nc1-c1ccn(-c2ccccc2)n1 | 10% | 40 | -12 | 1.3 | -35
C=CCN1c2ccccc2[C@]23C[C@@H](C(=O)OC)N(C(=O)CC(C)C)C2=NC(C(=O)OC)=C(C(=O)OC)[C@H]13 | -2% | -2 | . | 11 | .
O=C(COC(=O)c1cc(=O)[nH]c2ccccc12)Nc1cccc(S(=O)(=O)N2CCOCC2)c1 | 4% | -12 | . | 2.8 | .
CCC(=O)N1CCc2cc(S(=O)(=O)CCC(=O)NCCc3ccc(OC)c(OC)c3)ccc21 | -7% | -5 | 7 | -0.7 | -5
CCN(CC)c1ccc(/C=N/NC(=O)OC(C)(C)C)cc1 | -12% | -4 | . | -2.8 | .
CCOC(=O)C(C)Sc1nc2c(cnn2-c2ccc(C)cc2)c(=O)[nH]1 (stereo not given) | 3% | -5 | -19 | . | -1
CCN(CC)S(=O)(=O)c1ccc2c(c1)oc(=O)n2CC(=O)NC1CCCCC1 | . | -1 | . | -0.7 | .
CC(=O)N1c2ccc(S(=O)(=O)N3CCC(C(=O)NCc4ccc(Cl)cc4)CC3)cc2CC1C (stereo not given) | . | -1 | . | 0.2 | .
CCC(CC)C(=O)N1N=C(c2ccc(NS(C)(=O)=O)cc2)CC1c1ccc(C)cc1 (stereo not given) | 10% | 6 | . | -0.4 | .
COc1ccc(CC(=O)N2CCC(Nc3nc4ccccc4n3Cc3ccc(F)cc3)CC2)cc1 | -2% | 0 | -11 | 8.0 | -16
CCc1cccc(CC)c1NC(=O)COC(=O)c1ccccc1-c1nc2ccccc2s1 | 0% | 0 | -3 | 3.4 | 1
COc1ccccc1N(CC(=O)NCCN1CCOCC1)S(=O)(=O)c1ccccc1 | . | -5 | . | 5.4 | .
Cn1c(SCC(=O)NNC(=O)c2ccc(Br)cc2)nnc1-c1cccnc1 | 2% | 0 | 2 | . | .

An excerpt; the hit share may differ from the screen's.
